# HCMV UL50-53 inh – disrupts HCMV UL50-UL53 complex binding. inhibition, % (test concentration not listed). HTRF UL50-UL53 interaction, normalized percent inhibition. 190,000 compounds, 0.15% hits;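 active = both replicates at 50% or more, plus weaker picks with an unusually low signal ratio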;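 note: stock transfer was 100 nL into about 20 µL; 0% = negative control wells and 100% = wells with untagged competitor protein; inactives centre near -12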
# Sa growth 42C – S. aureus growth inhibition. 170,000 compounds, 0.53% hits. AID 720641. relative growth, % (test concentration not listed). S. aureus RN4220 growth, OD600, 20 h, 42 °C; hits give low values;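 active = growth at 42 °C up to 50% and 20 or more points under that at 30 °C, or under 10% at both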;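 note: 300 nL library stock went into each well; scaled to the means of positive and negative controls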
# GIV Gai3 FP – blocks GIV peptide binding to rat Galpha-i3 | 210,000 compounds, 0.42% hits | P08753 | Galpha-i3/FITC-GIV peptide fluorescence polarization, 90 min; hits give low values; scaled: aluminum fluoride 0%, vehicle 100% | percent of control (FP), % (no concentration beside the values);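 active = replicate mean at 85% of control or lower, very high polarization wells dropped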;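 note: wells of about 15 µL received 100 nL stock; the first replicate is given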
# Target sequence (P08753 whole entry, looked up): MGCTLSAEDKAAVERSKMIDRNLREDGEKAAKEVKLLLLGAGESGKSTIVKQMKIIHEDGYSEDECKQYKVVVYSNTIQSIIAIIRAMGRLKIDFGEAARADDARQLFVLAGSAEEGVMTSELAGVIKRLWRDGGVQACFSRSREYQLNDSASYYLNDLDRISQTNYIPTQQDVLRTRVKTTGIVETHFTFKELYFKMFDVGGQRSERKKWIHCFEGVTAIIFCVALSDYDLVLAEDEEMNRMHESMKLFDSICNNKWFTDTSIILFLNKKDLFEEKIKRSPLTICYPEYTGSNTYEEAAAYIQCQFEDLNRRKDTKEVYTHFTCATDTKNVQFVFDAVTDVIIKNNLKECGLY
# Sa growth 42C second temp – further read-out of Sa growth 42C, marked with its call; relative growth, %; measured here: growth at 30 °C;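 optical density after 20 h as mean of two plates; 100% = untreated growth and lower means inhibition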
# The depositor's hits bear a star; x = not tested or not shown; & = joins results of further samples.
SMILES,HCMV UL50-53 inh,Sa growth 42C,Sa growth 42C second temp,GIV Gai3 FP
COCCn1c(SCC(=O)N2CCc3ccccc32)nc2c(c1=O)SC(C)C2 (stereo not given),-31,89,79,108
CNc1ccccc1C(=O)Nc1cccc(OC)c1,-20,93,97,x
CSc1ccc(CCNC(=O)CCn2c(=O)c3cccn3c3cccnc32)cc1,x,122,85,101
CCOc1ccc(NC(=O)CSc2oc(-c3ccco3)nc2S(=O)(=O)c2ccccc2)cc1,-14,96,89,101
CC(CC1CC(C)(C)OC1=O)C(=O)Nc1nncs1 (stereo not given),x,98,83,94
O=S1(=O)CCC(NCc2cc(Cl)c3c(c2)OCCCO3)C1 (stereo not given),-24,80,89,x
Cn1c(Sc2cnn(-c3ccccc3)c(=O)c2Br)nnc1-c1ccccc1,-45,93,89,x
c1ccc2c3c([nH]c2c1)CCCC3,-45,95,87,103
CSc1ccc(CNc2ncc(-c3ccccc3)n2C)cc1,x,122,58,102
CC(C)OC(=O)CSc1ncnc2scc(-c3ccccc3)c12,-1,93,93,x
Cc1ccc2c(c1)C(C)(c1ccccc1)CC(C)(C)N2C(=O)c1ccc(F)cc1 (stereo not given),-36,108,93,105
O=C(O)c1cnn2c(C(F)F)cc(C3CC3)nc12,-4&-23,111,89,101&102
Cc1ccc(C)c(N2CCN(C(=O)c3ccc(N4CCCC4=O)cc3)CC2)c1,x,102,84,103
CCOc1ccc(NC(=O)CSc2oc(-c3ccccc3)nc2S(=O)(=O)c2ccccc2)cc1,x,118,77,103
c1ccc2c(c1)OCC(CNCC1COc3ccccc3O1)O2 (stereo not given),x,129,92,102
O=C(NCC(c1ccc2c(c1)OCO2)N1CCOCC1)c1ccccc1 (stereo not given),x,113,99,104
O=C(Cn1cnc([N+](=O)[O-])n1)Nc1ccc([N+](=O)[O-])cc1Cl,-50,x,x,102
NS(=O)(=O)c1ccc(-c2ccc(/C=C3\Sc4ccccc4C3=O)o2)cc1,-29,x,x,253
Cc1c(Cl)ccc2sc(N(Cc3ccccn3)C(=O)c3ccco3)nc12,1,114,94,123
Cc1ccc(SCc2cc(=O)[nH]c(/N=C(/N)Nc3ccccc3)n2)cc1,x,86,86,95

# Full records from above. Values in the order: HCMV UL50-53 inh	Sa growth 42C	Sa growth 42C second temp	GIV Gai3 FP
# Cc1ccc2c(c1)C(C)(c1ccccc1)CC(C)(C)N2C(=O)c1ccc(F)cc1 (stereo not given) is listed with -36	108	93	105
# CCOc1ccc(NC(=O)CSc2oc(-c3ccccc3)nc2S(=O)(=O)c2ccccc2)cc1 is listed with x	118	77	103
# CC(CC1CC(C)(C)OC1=O)C(=O)Nc1nncs1 (stereo not given) is listed with x	98	83	94
# NS(=O)(=O)c1ccc(-c2ccc(/C=C3\Sc4ccccc4C3=O)o2)cc1 is listed with -29	x	x	253
# O=S1(=O)CCC(NCc2cc(Cl)c3c(c2)OCCCO3)C1 (stereo not given) is listed with -24	80	89	x

# New compounds follow
SMILES,HCMV UL50-53 inh,Sa growth 42C,Sa growth 42C second temp,GIV Gai3 FP
O=C(CSc1nnc(CNc2ccc(F)cc2)o1)N1CCOCC1,25,98,114,105
CCOC(=O)c1cnn(-c2ncnc3sc(-c4ccccc4)cc23)c1N,7,117,95,x
CCOC(=O)C1=C(O)CSC1=NC(=O)c1ccc(OC)cc1,19,72,56,210
Cc1nc(N2CCN(c3ccccn3)CC2)c2c(C)c(C(=O)N3CCCCC3C)sc2n1 (stereo not given),-14,x,x,103
CC(=O)Oc1ccc(S(=O)(=O)c2ccc(OC(C)=O)cc2)cc1,-51,98,92,x
O=C(C1CC1)N1CCN=C1SCc1cccc(C(F)(F)F)c1,-22,78,82,99
c1ccc(-c2cc3ncnc(N4CCSCC4)c3s2)cc1,-31,96,74,101
CCOC(=O)N1CCN(C(=O)CN(c2ccc(C)cc2)S(=O)(=O)c2cc(C)ccc2OC)CC1,0,105,106,109
COC(=O)C1=C(C)NC2=C(C(=O)CC(c3ccccc3Cl)C2)C1c1cc(OC)c(OC)c(OC)c1 (stereo not given),-5,x,x,106
Cc1ccc2[nH]c(=O)c(-c3noc(CCC(=O)N(C)C)n3)cc2c1,-62,x,x,106
O=C1c2ccccc2C(=O)N1CSc1ncnc2c1cnn2-c1ccccc1,-18,109,80,x
CCOC1(C)OC2CCC(CC)OC2O1 (stereo not given),-10,81,103,x
Cc1cc(C)n2nc(SCC(=O)N3c4ccccc4CC3C)nc2n1 (stereo not given),-16,94,94,x
N#Cc1sccc1CS(=O)(=O)c1ccc(Cl)cc1,-18,96,92,102
CCCCN(C)CCCNC(=O)Cn1ncc2c3ccccc3n(Cc3cccc(Cl)c3)c2c1=O,1,109,82,152
c1ccc(-c2cc3nccc(-c4cccs4)n3n2)cc1,-9,75,74,98
Cc1nc2c(C)cccc2c2c1CCN2c1ccccc1F,-94,87,70,111
CNCC(O)c1cccc(O)c1 (stereo not given),-15,88,87,x
CCOC(=O)c1cc(S(=O)(=O)Nc2cc(F)ccc2C)[nH]n1,x,86,82,104
CCCC12CN(C(=O)CC(C)C)CC(CCC)(CN(C(=O)CC(C)C)C1)C2=O,-9,98,89,93

# In the list so far, these contain a furan ring, fused or not:
SMILES,HCMV UL50-53 inh,Sa growth 42C,Sa growth 42C second temp,GIV Gai3 FP
CCOc1ccc(NC(=O)CSc2oc(-c3ccco3)nc2S(=O)(=O)c2ccccc2)cc1,-14,96,89,101
NS(=O)(=O)c1ccc(-c2ccc(/C=C3\Sc4ccccc4C3=O)o2)cc1,-29,x,x,253
Cc1c(Cl)ccc2sc(N(Cc3ccccn3)C(=O)c3ccco3)nc12,1,114,94,123

# Remaining list, next part:
SMILES,HCMV UL50-53 inh,Sa growth 42C,Sa growth 42C second temp,GIV Gai3 FP
NC(=O)C1CCN(C(=O)CCSCc2ccccc2)CC1,-4,88,92,101
COc1ccc(NC(=O)N(Cc2ccco2)C2CCN(C(C)=O)CC2)c(OC)c1,x,97,90,100
CCCCNC(=O)c1cc(Sc2ccc(OCC)cc2)nc2ccccc12,x,131,91,97
O=C(O)Cn1c2c(c3ccccc31)CSc1ccc(Cl)cc1-2,x,89,81,86
Cc1cccc(OCC(=O)Nc2ccc(C(=O)OCc3cc(=O)n4nc(C5CC5)sc4n3)cc2)c1,x,90,89,103
CCc1ccc2occ(CC(=O)Nc3sc4c(c3C(=O)NCCOC)CCCC4)c2c1,-18,105,89,105
NC(=O)c1cc(S(=O)(=O)NCCN2CCc3ccccc3C2)cs1,-30,100,79,102
CC1=NN(C(=O)CCc2ccccc2)C(O)(c2ccccc2)C1 (stereo not given),x,108,84,100
CC1CCN(c2cc(N3CCN(C(=O)c4ccco4)CC3)c3c4c(onc24)-c2ccccc2C3=O)CC1,-50,91,66,128
CCc1cccc(N2C(=O)c3ccncc3C2=O)c1,-28,x,x,106
CCOC(=O)c1ccc(N2C(=O)CC(NCCc3ccc(S(N)(=O)=O)cc3)C2=O)cc1 (stereo not given),10,95,95,111
COC(=O)c1c(C)nn(-c2cccc(C)c2)c1N,-31,x,x,102
CCCCNC(=O)Oc1ccc(C2=NCCS2)cc1,-23,94,86,106
CCOC(=O)CSCc1noc(COc2ccc(Cl)cc2Cl)n1,-2,94,69,100
C=C(C)CN=c1scc(-c2cc3ccccc3o2)n1/N=C/c1cccc(OC)c1O,-25,84,86,x
Cc1nnsc1C(=O)Nc1ccccn1,-28,100,92,101
CCn1nc(C)cc1Nc1ccccc1,-26,117,88,x
Fc1ccc(N2CCN(c3ncnc4onc(-c5ccc(Cl)cc5)c34)CC2)cc1,-5,107,89,104
Cc1cc(Cl)nc2ccccc12,-3,102,88,x
CC1=CC(=O)N(c2ccccn2)C1c1ccc(Cl)cc1 (stereo not given),-22,97,83,100

# Three compounds from above, ordered by formula weight, largest number first.
SMILES,HCMV UL50-53 inh,Sa growth 42C,Sa growth 42C second temp,GIV Gai3 FP
Cn1c(Sc2cnn(-c3ccccc3)c(=O)c2Br)nnc1-c1ccccc1,-45,93,89,x
Cc1ccc(SCc2cc(=O)[nH]c(/N=C(/N)Nc3ccccc3)n2)cc1,x,86,86,95
CCOC(=O)C1=C(O)CSC1=NC(=O)c1ccc(OC)cc1,19,72,56,210

# Further structures follow:
SMILES,HCMV UL50-53 inh,Sa growth 42C,Sa growth 42C second temp,GIV Gai3 FP
COCCCn1c(=O)c2sccc2n2c(CCCC(=O)Nc3ccc(F)c(F)c3)nnc12,9,91,93,97
Cc1cc(C)c(Cn2c(CCNC(=O)c3ccco3)nc3ccccc32)c(C)c1,-1,97,88,100
CCc1nc(SCC(=O)N2CCCc3ccccc32)c2c(=O)n(C)c(=O)n(C)c2n1,-26,92,80,105
CCOC(=O)C1=C(C)N=C2SCCC(=O)N2C1c1ccccc1 (stereo not given),-27,82,112,100
CC(=O)SCC[N+](C)(C)C,-18,x,x,105
CC(=O)OC12CC3CC(C1)C(O)C(C3)C2 (stereo not given),-19,95,85,97
COc1ccccc1N1CCN(C(=O)c2cc(C3CC3)[nH]n2)CC1,-4,x,x,97
O=C(O)C1C2CCC(C2)C1C(=O)Nc1ccc(Cc2ccncc2)cc1 (stereo not given),24,100,95,108
COC(=O)c1ccccc1NC(=O)c1cccnc1,-1,90,94,x
C=CCSc1nc2ccccc2c(=O)n1CC=C,3,92,86,99
Cc1ccc(CC2SC(N3CCN(c4ccccc4)CC3)=NC2=O)cc1 (stereo not given),-12,113,93,x
COc1cc(C2c3c(oc4ccccc4c3=O)C(=O)N2c2ccccn2)cc(OC)c1OC (stereo not given),-1,98,103,108
O=C1Nc2ccccc2C1Cc1cccc(Cl)c1 (stereo not given),-8,x,x,103
COc1ccc(NC(c2ccc(F)cc2)c2nnc(-c3ccccc3Cl)o2)cc1Cl (stereo not given),-10,115,89,108
Cc1cc(C(=O)CN(Cc2ccco2)C2CCS(=O)(=O)C2)c(C)n1Cc1cccs1 (stereo not given),-18,101,91,x
Cn1c(=O)c2sccc2n2c(CCCC(=O)Nc3ccc(F)cc3F)nnc12,28,95,106,101
CNC(=O)c1ccc2c(c1)CCCN2S(C)(=O)=O,-17,75,88,105
COc1cccc(OCCSc2nc(-c3ccccc3)cc(=O)[nH]2)c1,x,101,74,105
COc1ccc(N2C(=O)CCS2(=O)=O)cc1S(=O)(=O)Nc1ccccc1,1,x,x,101
Cc1c(C(=O)NCC2(N3CCN(C)CC3)CCCCC2)oc2ccc(Cl)cc12,6,x,x,103
CCOc1ccc2c(c1)cc(C(=O)NC1CCCC1)n2C,-11,x,x,99
CCNc1nc2c(c(=O)n(Cc3ccccc3)c(=O)n2C)n1Cc1ccccc1,8,112,90,94
CCOC(=O)N/N=C1\CCS(=O)(=O)c2ccc(Cl)cc21,-23,99,95,111
COCCn1c(CN2CCN(S(=O)(=O)c3ccc(Cl)cc3)CC2)nc2ccccc2c1=O,-5,x,x,109
CNC(=O)N1CCCC(c2cccc(C(=O)NCCN3CCCCC3C)c2)C1 (stereo not given),0,x,x,119
Cc1ccc(N2C(=O)C(CC(=O)Nc3cccc(F)c3)N(C3CC3)C2=O)cc1 (stereo not given),-26,102,87,100
Cc1ccc2c(c1)c(=O)c(C(=O)c1ccc3c(c1)OCO3)cn2Cc1ccc(Cl)cc1,-9,72,79,100
CC(C)OCCCn1c(=O)c2ccccc2n2c(=O)n(CC(=O)Nc3cc(F)ccc3F)nc12,14,x,x,103
CN(CC(=O)Nc1ccc(F)cc1)C(=O)COc1ncnc2c1cnn2-c1ccccc1,-3,69,92,x
Cn1c(=O)c(=O)n(C)c2cc(N3CCCCC3)c(NC(=O)C(C)(C)C)cc21,0,x,x,104
COC(=O)Cc1nc2ccccc2[nH]1,-42,95,85,x
CCc1cccc(C)c1NC(=O)CN1C(=O)C2(SCC(=O)N2c2cccc(F)c2)c2ccccc21 (stereo not given),x,102,100,104
Cc1ccc(CSc2ncc(C(F)(F)F)cc2Cl)cc1,x,126,83,100
O=C(Nc1cc(Cl)cc(Cl)c1)C1=COCCO1,-4,100,87,102
Cc1ccc(C)c(NC(=O)CCOc2ccccc2)c1,16,101,105,103
Cc1ccc(CSc2nc3cccnc3n2Cc2ccc(C(=O)NCc3cccs3)cc2)cc1,x,118,95,99
COc1ccc(/C=C(\C#N)C(=O)Nn2c(-c3cc(OC)cc(OC)c3)nc3ccccc3c2=O)cc1,13,x,x,107
CC(C)(C)C(=O)/C(C#N)=C/c1ccc(N2CCOCC2)cc1,-63,102,91,x
CCNC(=O)c1c(C)c(C(=O)OCC)n(CC)c1C,x,105,93,107
